Source: PubChem BioAssay (National Center for Advancing Translational Sciences (NCATS))
PINK1 modulator = modulators of PINK1 expression; PINK1 immunofluorescence, high-content cytometry, 24 h; Potency, µM (titrated, usually from 76.6 µM), for the others: at the top dose activation (PINK1 increase), usual class: activators; actives 0.2% (n = 410,000); AID 624263; active = well fitted activation curve with a large enough effect; inconclusive = small, poorly fitted or top-dose-only effect; inactive = flat fitted curve, though single readings scatter; cell line not stated here;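 also: potency is read from the fitted curve at half-maximal effect; % of control where 0% means no effect; nearly all actives have a fitted effect of over 65% in size; a mitochondrial uncoupler was the plate control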
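Stable cell line treated 24 h with compounds at 5 concentrations (CCCP controls), then fixed and immunostained for PINK1 plus nuclear and cell stains; PINK1 immunofluorescence quantified by laser-scanning microplate cytometry.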
Menin MLL FP FL = inhibitors of human menin-MLL interaction, wild-type MLL peptide. Fluorescence polarization, fluorescein-MLL peptide displacement from menin. FP activity change, % at 61.4 µM. 290,000 tested, under 10 active. AID 1766; inconclusive = falling polarisation curve, or a change in total fluorescence; inactive = total fluorescence flat and polarisation flat or rising; no compound was filed as active; the % refers to the polarisation; negative = inhibition;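 also: % of control where 0% means no effect; inhibitors lower the polarisation; unlabelled MLL peptide was the positive control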
gsp ag = gsp mutant agonism | Potency, µM (doses to about 76.9 µM), without a hit: at the highest dose activation (cAMP increase), most hits filed as activators | actives 0.13% (n = 340,000) | gsp mutant cells, cAMP HTRF, 30 min; control for the full effect not named in the record; active = well fitted activation curve with a large enough effect; inconclusive = small, poorly fitted or top-dose-only effect, or another doubt; inactive = no such curve, though single readings can be large or run the other way; cell line not stated here;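 also: phosphodiesterase inhibitor Ro 20-1724 added with compounds to block cAMP breakdown; potency is read from the fitted curve at half-maximal effect; nearly all actives have a fitted effect of over 60% in size; about a fifth of the inactives were tested at one dose only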
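Cells in DMEM/10% FBS with G418 were pretreated with compounds in DMSO plus […] (300 uM stock) for 30 min at 37C. cAMP was measured by HTRF (cAMP-d2 plus anti-cAMP antibody-K) after 30 min at room temperature.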
D2 agonist = activates the human D2 dopamine receptor; P14416; activation, % (test concentration not listed); actives 0.084% (n = 360,000); AID 624465; DiscoveRx PathHunter D2 beta-arrestin, luminescence, 90 min; 100% = 57 uM dopamine signal; in the data active = activation above about 40%; inconclusive = about 15% to 40%; inactive = below about 15%; also: compound concentration not given in the record; the text of the record calls up to 30% inactive
Target sequence (P14416 whole entry, looked up): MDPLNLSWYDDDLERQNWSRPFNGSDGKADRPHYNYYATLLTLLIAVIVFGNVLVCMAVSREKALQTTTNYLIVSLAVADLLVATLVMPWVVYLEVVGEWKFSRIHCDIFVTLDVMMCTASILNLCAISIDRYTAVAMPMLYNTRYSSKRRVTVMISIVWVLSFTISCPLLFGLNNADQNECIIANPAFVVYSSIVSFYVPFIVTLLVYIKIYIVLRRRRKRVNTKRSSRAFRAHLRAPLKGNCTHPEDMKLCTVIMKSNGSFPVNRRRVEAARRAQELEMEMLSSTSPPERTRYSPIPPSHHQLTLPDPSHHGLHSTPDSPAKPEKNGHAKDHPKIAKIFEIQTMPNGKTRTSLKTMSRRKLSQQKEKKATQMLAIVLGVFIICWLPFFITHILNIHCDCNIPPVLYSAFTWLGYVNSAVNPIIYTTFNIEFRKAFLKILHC
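Agonist mode: compounds alone added to overnight-plated D2 PathHunter cells for 90 min at 37 C, with 57 uM final dopamine (EC100) defining full response. Beta-arrestin recruitment detected by chemiluminescent reagent, read after 1 h at ambient temperature.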
gsp antag = gsp mutant antagonism | gsp-mutant cells, cAMP HTRF, 30 min; control for the full effect not named in the record | Potency, µM (titrated, usually from 76.9 µM), without a hit: top-dose activity change, negative = inhibition, actives largely listed as inhibitors | actives 0.4% (n = 340,000); active = falling curve of any shape with a large fitted effect; inconclusive = falling curve, mostly with a smaller effect; inactive = flat or rising curve; cell line not stated here;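 also: intracellular cAMP measured with PDE inhibitor Ro 20-1724 present during compound exposure; potency is read from the fitted curve at half-maximal effect; % is scaled to controls: 0 for no effect and ±100 for the full control effect; nearly all actives have a fitted effect of over 65% in size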
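HTRF cAMP read-out (cAMP-d2 plus anti-cAMP antibody-K in lysis buffer, 30 min RT). Before lysis, cells are exposed to compounds with […] for 30 min at 37C in DPBS containing Ca/Mg, BSA and Tween 20.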
Sfp inh = blocks B. subtilis Sfp PPTase activity; Q9F4F7; Biochemical Sfp PPTase activity, qHTS; Potency, µM, for inactives: max response, negative = inhibition, most hits filed as inhibitors; actives 3.5% (n = 310,000); AID 1490; active = well fitted inhibition curve with a large enough effect; inconclusive = small, poorly fitted or top-dose-only effect, or another doubt; inactive = no such curve, though single readings can be large or run the other way;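 also: the enzyme is Sfp with the accession as filed and its product quenches rhodamine fluorescence; potency is read from the fitted curve at half-maximal effect; 0% = enzyme reaction without inhibitor and -100% = no enzyme wells; top concentration of the series not given in the record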
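Fluorescence-quenching assay: 15 nM Sfp-PPTase preincubated 15 min at room temperature with compound, then 5 uM rhodamine-CoA and 12.5 uM BHQ-2-labelled YbbR peptide added. Fluorescence (ex 525/em 598 nm) read at start and after 30 min; difference gives rate.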
ClpP mod = qHTS Assay for Activators of ClpP | purified B. subtilis ClpP, FRET peptide cleavage, 20 min | actives 1.9% (n = 340,000) | AID 651965, 2013 | Potency, µM (highest dose often 57.5 µM), inactives show top-dose activity change, negative = active | ATP-dependent Clp protease proteolytic subunit (Bacillus subtilis (strain 168)), P80244; active = well fitted falling curve with a large enough effect; inconclusive = small, poorly fitted or top-dose-only effect; inactive = no such curve, though single readings can be large or run the other way; also: potency is read from the fitted curve at half-maximal effect; the source files actives as falling curves though it sought activators and does not explain the sign; nearly all actives have a fitted effect of over 65% in size; many hits overshoot -100%
Target sequence (P80244 whole entry, looked up): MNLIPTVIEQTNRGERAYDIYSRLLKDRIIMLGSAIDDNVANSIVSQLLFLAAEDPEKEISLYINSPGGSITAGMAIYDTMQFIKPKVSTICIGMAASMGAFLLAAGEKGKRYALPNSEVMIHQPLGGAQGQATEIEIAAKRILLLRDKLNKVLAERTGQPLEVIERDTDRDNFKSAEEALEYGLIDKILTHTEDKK
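FRET quenching reversal measured ClpP activation: 10 microg/mL B. subtilis ClpP at pH 8 with the FRET-FV decapeptide, read at 430 nm after 320 nm excitation. The 20-min minus 0-min signal was scaled between DMSO/no-enzyme wells and ADEP (5.8 microM final).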
The depositor's hits bear a star; u = inconclusive; x = no result given; & = joins results of further samples; [ ] = remark or other dose.

SMILES	PINK1 modulator	Menin MLL FP FL	gsp ag	D2 agonist	gsp antag	Sfp inh	ClpP mod
CCN(CC(=O)NC(=O)NCc1ccco1)Cc1ccccc1	1.7%	x	10%[15.4 µM]	-4.0	9%	x	x
Cc1c(C(=O)NC2CCS(=O)(=O)C2)oc2ccccc12 (stereo unspecified)	3.5%	-11	3%[15.4 µM]	-4.6	-7%	15%	1.4%
O=C(NCC1CCCO1)C(c1ccncc1)N(Cc1ccc(F)cc1)C(=O)CN1C(=O)c2ccccc2S1(=O)=O (stereo unspecified)	0.8%	4.1	-26%	0.6	3%	6%	-1.6%
Cc1ccc(/C=C/C(=O)N2CC(C)CC(C)C2)o1 (stereo unspecified)	1.6%	4.1	3%	-5.7	7%[15.4 µM]	16µM*	-2.6%
Cc1cc(C)c(NC(=O)c2cc(S(=O)(=O)N3CCOCC3)ccc2F)c(C)c1	0.6%	-3.2	-14%	3.1	2%	15%	-0.3%
COC(=O)c1cc(=O)n(Cc2ccc3c(c2)OCO3)c(=Nc2ccccc2)s1	5.0%	-1.8	6%	2.1	-8%	-17%	1.0%
COc1ccccc1C(CNc1ncnc2sc(C)c(C)c12)N(C)C (stereo unspecified)	0.5%	1.6	-30%[15.4 µM]	0.4	3%	7%	x
CCOc1nc(C)ccc1-c1noc(C)n1	3.4%[38.3 µM]	0.7	-23%	-2.5	3%	12%	-4.5%
Cc1ccc(N2C(=O)C3CCC(C)(C2=O)C3(C)C)cc1C (stereo unspecified)	1.9%	1.5	3%[15.4 µM]	-4.7	-1%	2%	-0.5%
O=C(NC1CCS(=O)(=O)C1)c1ccccc1Cl (stereo unspecified)	0.3%	x	26%	4.8	18%	x	0.0%
S=C(NCc1ccc(Cl)cc1)NC1CCN(Cc2ccccc2)CC1	2.0%	-5.7	-11%	7.4	7%	4%	x
CC(C)N(C(=O)/C=C/c1cccc([N+](=O)[O-])c1)C(C)C	3.0%	0.8	15%	-0.7	-4%	u	-0.9%
O=C1N(Cc2cccc(Cl)c2)C[C@@H]2C[C@@H](c3cccc4cccnc34)N3CCC[C@@]123	0.0%	-1.4	24%	-2.7	-13%	5%	x
CCOc1ccc(S(=O)(=O)NCCC(=O)NCc2ccco2)cc1	0.1%	0.6	-3%	-1.8	2%	7%	0.7%
COc1ccccc1NC(=O)CSc1nnc(COc2ccccc2OC)n1C	0.6%	1.1	-42%[inhibitor]	-2.1	-7%	26%	0.9%
CCC(=O)c1ccc(OCC(=O)Nc2ccccc2C(=O)N2CCCCC2)cc1	-1.1%	x	-15%[15.4 µM]	-0.4	3%	x	x
O=C1CC(N(CCc2ccccc2)C(=S)Nc2ccccc2)C(=O)N1c1ccc(Br)cc1 (stereo unspecified)	u	4.1	0%[15.4 µM]	-4.4	u	41%	-1.6%
CCCn1c(N)c(N2CCCCC2)c(=O)n(CC(=O)Nc2ccc(OC(F)(F)F)cc2)c1=O	4.4%	-7.7	29%	-2.7	4%	8%	-0.3%
COc1ccccc1C(=O)OCCN=C1NS(=O)(=O)c2ccccc21	-2.5%	-1.1	-1%	-2.6	-5%	15%	x
COc1cc(Cl)c(CN2CCC(CCC(=O)NC3CC3)CC2)cc1OC	4.2%	-2.6	8%	-3.9	1%	0%	0.3%
CCOC(=O)Cc1cnc(N)s1	0.0%	-5.3	0%	-4.8	18%	13%	1.0%
Cc1ccc(S(=O)(=O)N(C)c2ccc(C(=O)NC3CCCCC3)cc2)cc1	2.7%	x	-4%	-2.3	x	x	-2.6%
CCn1c(SCC(=O)Nc2cccc(NC(C)=O)c2)nc2c([nH]c3ccccc32)c1=O	u	-1.3	-64%[inhibitor]	0.2	3%	u	-2.9%
Cc1ccc(OCC(=O)Nc2ccc(CN3CCCCC3)cc2)c(C)c1	-0.6%	-7.9	-19%[15.4 µM]	-1.0	7%	5%	x
O=C(Nc1ccccc1F)Nc1ccccc1Br	3.4%	-2.4	-10%	-1.9	71%[activator]	25%	2.1%
Fc1cccc(Cl)c1C1SCc2nc3ccccc3n21 (stereo unspecified)	1.6%	x	x	-4.7	x	x	-2.0%
Cc1cccc(CSCc2ccc(C(=O)NC3CCCC3)o2)c1	1.5%	3.3	1%	-4.6	-5%	13%	0.4%
O=C(NCc1cccnc1)c1cc(S(=O)(=O)N2CCCCC2)ccc1Cl	0.8%	2.1	u	-0.8	-1%	-5%	-0.6%
O=C(COc1cccc(C(F)(F)F)c1)NCC(c1ccco1)N1CCCCC1 (stereo unspecified)	5.3%	x	-4%[15.4 µM]	-2.1	5%	x	x
CC1=NCCN1CCNC(=O)Nc1ccc(C(C)(C)C)cc1	0.3%	-2.1	-7%	1.9	11%	-1%	x
O=C(NCCc1ccncc1)Nc1ccccc1Cl	-1.4%[38.3 µM]	-0.5	-72%[inhibitor]	2.3	-1%	18%	0.2%
COc1ccccc1NS(=O)(=O)c1cccc(C(=O)NC2CCN(Cc3ccccc3)CC2)c1	7.1%	x	-34%[15.4 µM]	-3.3	-6%	x	x
Cc1sc2ncn(Cc3ccccc3F)c(=O)c2c1C	5.7%	0.4	15%	-0.3	-6%	0%	x
c1ccc(SC23CC4CC(CC(C4)C2)C3)nc1	5.4%	x	-21%	-4.7	x	x	-2.8%
COc1ccccc1CNc1ncnc2nc[nH]c12	0.0%&0.1%&0.4%	3.4	28%	-3.6	-2%	-13%	0.2%&-1.6%&-0.5%
CCOC(=O)c1ccccc1NC(=S)N1CCN(C(=O)c2ccco2)CC1	1.9%	-5.6	30%	2.4	u	6%	x
O=C1Nc2ccc(NS(=O)(=O)c3cccs3)c3cccc1c23	-1.1%	1.3	14%	-5.5	-3%	-9%	-2.1%
COc1cccc2cc(-c3ccccc3)oc12	11%	x	-40%[inhibitor]	-5.7	3%	x	4.0%
O=c1[nH]c(=S)[nH]c2nc(-c3ccccc3)cnc12	-0.3%	x	-2%	-1.7	-22%	x	x
CCC(=O)NC1=C(C#N)C2(CCCC2)Cc2ccccc21	1.0%	-0.6	-3%	3.8	3%	-2%	32µM*
COc1ccc(CCNC(=O)C(=O)NCC2CCCN2S(=O)(=O)c2cc(C)ccc2C)cc1 (stereo unspecified)	-1.6%	x	-2%	2.5	u	x	1.0%
COc1cc(/C=N/NC(=O)c2cccc3ccccc23)cc(OC)c1OC	9.7%	-6.6	u	-1.7	8%	-9%	x
Cc1ccccc1C(C)NC(=O)COC(=O)Cn1cc(C(F)(F)F)ccc1=O (stereo unspecified)	0.5%	x	1%	-1.1	-16%	x	-2.0%
COc1ccc(NC2=CC(c3ccc(OC)cc3)N(c3ccc(OC)cc3)C2=O)cc1 (stereo unspecified)	1.2%	4.4	1%	-6.6	u	-11%	-9.6%
O=C(O)CCn1cc(/C=C/C(=O)c2ccc(Cl)cc2)c(-c2cccc(Br)c2)n1	-2.8%	-7.2	-42%[inhibitor][15.4 µM]	-0.5	u	13%	x
CC(C)C[C@H](NC(=O)c1nc[nH]c1C(=O)N1CCc2ccccc2C1)C(=O)OC(C)(C)C	0.0%	4.4	x	-0.4	-6%	11%	1.8%
O=C1/C(=C/N(C(=O)c2ccco2)c2ccc(Cl)cc2)Sc2ccccc21	19%	x	-22%	-1.7	-8%	8%	10µM*
Cc1sc(NC(=O)C2CC(=O)N(Cc3ccco3)C2)nc1-c1ccccc1 (stereo unspecified)	0.9%	x	u	1.0	x	x	-15%
CC(=O)N1CCN(C(=S)c2ccc(-c3ccc(Cl)cc3)o2)CC1	3.8%	6.3	1%	-2.8	-6%	32µM*	1.2%
CCOC(=O)c1ccc(NC(=O)C(C)Sc2nc(O)c(-c3ccccc3)c(=O)[nH]2)cc1 (stereo unspecified)	2.6%	-0.7	2%[15.4 µM]	-0.9	-7%	10%	x
Additional entries
SMILES	PINK1 modulator	Menin MLL FP FL	gsp ag	D2 agonist	gsp antag	Sfp inh	ClpP mod
CCOc1ccc2nc(NC(=O)NC3CCCCC3)sc2c1	10%	0.5	12%[15.4 µM]	-1.9	-2%	23%	x
COc1ccc(CC(=O)OCC(=O)Nc2ccc(F)cc2)cc1	0.0%	x	10%[15.4 µM]	-0.7	6%	x	-0.3%
CC(=O)c1cc(CN2CCN(CCC(C)C)C(CCO)C2)cs1 (stereo unspecified)	-0.3%	2.8	u	-6.4	13%	7%	-0.7%
Cc1cc(N/C(=N\S(=O)(=O)c2ccc(F)cc2F)c2ccccc2)no1	3.1%[38.3 µM]	-1.1	0%	-3.0	9%	5%	-0.4%
CCOc1cc(/C=C2/C(=O)NN(c3cccc(Cl)c3)C2=O)ccc1O	0.3%	25	-36%[inhibitor]	-2.8	-15%	12%	x
O=C(Cc1ccccc1[N+](=O)[O-])NCc1ccco1	-1.5%	3.4	5%[15.4 µM]	-0.9	-1%	50µM*	x
CSCc1nnc(NC(=O)c2ccc(S(=O)(=O)N(C)C)cc2)o1	1.4%	-1.8	-1%	-2.1	12%	u	-1.6%
CCc1cc(C(=O)Cc2ccc(F)cc2)c(O)cc1O	u	3.7	-24%	2.5	7%	-2%	-0.9%
CCc1ccc(CN2CCC(n3nccc3NC(=O)c3ccc4c(c3)OCO4)CC2)cc1	-0.4%	x	-1%[15.4 µM]	-0.1	4%	1%	-1.0%
COC(=O)COc1cccc2c(=O)n(CC(=O)NCCc3ccc(OC)c(OC)c3)ccc12	-0.7%	1.5	0%	-3.4	5%	5%	-9.0%
O=C(CSc1nnc(CNC(=O)c2ccccc2)o1)NCCc1ccccc1	-2.5%	x	3%	-3.6	-3%	7%	-1.8%
COc1ccc(NC(=O)CSc2nnnn2C2CCCC2)c(OC)c1	3.2%	0.7	-21%[15.4 µM]	-4.5	2%	8%	0.4%
COc1ccccc1/C=C/C(=O)N1CCc2cc(OC)c(OC)cc2C1C (stereo unspecified)	-1.5%	-1.9	-128%[inhibitor]	-1.0	u	-6%	x
